# Anaer choline gr: choline-fed anaerobic bacterial growth inhibition; calls only; Gram-negative bacterium anaerobic choline minimal medium, absorbance growth; hits give low values; many inactives read as strong as hits in the columns shown; 0.2% of 55,000 active;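 active = growth z-score on choline under -2 at 7 or 20 h with little or no fall on glycerol, limits in tiers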;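 also: stock transfer was 300 nL into about 50 µL; the organism is E. coli; final concentration not given here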
# Anaer choline gr early: recorded beside Anaer choline gr, whose call it bears; z-score; measured here: choline growth z-score, timepoint 1;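 score of optical density at 7 h as mean of two plates; lower means less growth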
# Active calls of the source: *; i = inactive; & = joins results of further samples.
SMILES,Anaer choline gr,Anaer choline gr early
CCc1cc(C(Nc2nc(C)cc(C)n2)c2cccc(F)c2)c(NC(=O)c2ccccc2)s1 (stereo not given),i,2.3
Cc1ccc(N2C(=O)CN(CCc3ccccc3)[C@H]3CS(=O)(=O)C[C@H]32)cc1C,i,-0.93
O=S(=O)(c1cc(-c2noc(C3CC3)n2)cs1)N1CCc2ccccc21,i,0.72
Cc1ccc(-c2[nH]ncc2CN2CCCC2c2cc(C(C)C)no2)cc1 (stereo not given),i,-1.1
Nc1ccc(S(=O)(=O)Nc2ccnn2-c2ccccc2)cc1,i,-0.34&-0.02
Cc1cccc(-c2cnc(Nc3cccc(C(=O)Nc4ccc5c(c4)OCCO5)c3)nc2)c1,i,0.32
O=S(=O)(c1cn(Cc2noc(C3(c4ccccc4)CC3)n2)cn1)N1CCCCC1,i,-0.97
COc1ccc(NC(=O)c2sc(N3CCCC3=O)nc2C)c(OC)c1,i,-1.4
CCN1CCN(c2nc(C)c(Cc3ccc(Cl)cc3)c(=O)[nH]2)CC1,i,-0.95
CCCOc1cccc(C2CC(=O)Nc3c2c(C)nn3-c2ccc3nncn3n2)c1 (stereo not given),i,-1.8
CCCN1CCN(C(=O)c2cc3cc4ccc(OC)c(Cl)c4nc3s2)CC1,i,1.4
CCCN1C(=O)c2c(C(=O)Nc3ccc(CC)cc3)ncn2CC1(C)C(=O)NCc1ccccc1 (stereo not given),i,-0.56
COc1ccc(S(=O)(=O)N2CCC(c3noc(-c4ccc(F)cc4)n3)CC2)cc1,i,0.72
CC1CCN(C(=O)c2ccc3nc(N4CCCCC4)sc3c2)CC1,i,-0.08
Cc1nn(C)c(C)c1CCNC(=O)Nc1ccccc1Cl,i,0.69
COc1ccc(S(=O)(=O)N2CC=C(c3c(C)n(C)c4ccccc34)CC2)cc1OC,i,0.24
COc1ccc(NS(=O)(=O)c2cc(-c3nc(C)c(C(=O)N4CCCC4)s3)n(C)c2)cc1OC,i,0
Cn1c(=O)c2c(-c3cccc(Br)c3)n(CC3CCCO3)cc2n(C)c1=O (stereo not given),i,-2.2
COc1ccc(OCC(=O)N2CCN(C(=O)c3cc4cc(OC)ccc4[nH]3)CC2)cc1,i,0.16
Cc1sc(N)c(C(=O)c2cccc(C(F)(F)F)c2)c1C,i,0.98
Oc1ccc(Nc2nc(-c3ccc(Cl)cc3)cs2)cc1,i,0
CC1(C)C(=O)N(CC(=O)NCc2ccccc2Cl)c2ccccc21,i,-0.79
Cc1cccc(NC(=O)NCc2nnnn2-c2ccc(C)c(C)c2)c1,i,-1
COc1ccc(/C=C/c2cc(O)cc(O)c2)cc1O,i,0.89
O=C(NC1CCCCC1)c1ccc(-c2nccc(Oc3ccccc3)n2)cc1,i,-0.15
FC(F)(F)c1cc(-c2cccnc2)nc2c(-c3ccccc3)cnn12,i,1.6
Cc1ccc(S(=O)(=O)CCc2noc(C3CCCO3)n2)cc1 (stereo not given),i,-0.5
Cc1nn(-c2ccc(F)cc2)c2sc(C(=O)Nc3ccccc3F)cc12,i,-0.48
O=C1/C(=C/c2ccsc2)CC/C1=C\c1cccs1,i,0.34
O=C(NCc1cc(F)cc(F)c1)c1sc2ncccc2c1-n1cccc1,i,0.08
CC(=O)Nc1ccc(C)cc1S(=O)(=O)NCCCn1c(-c2ccc(C)cc2)nc2cccnc21,i,-0.08
CC(Oc1ccc(F)cc1)C(=O)Nc1ccc2c(c1)NC(=O)CO2 (stereo not given),i,-1.5
Cc1cc(Cl)ccc1NC(=O)C1CCCN(S(=O)(=O)c2ccc3c(c2)NC(=O)CO3)C1 (stereo not given),i,0.45
Cc1ccc(-c2cc3c(SCC(=O)Nc4ccc5c(c4)OCO5)nccn3n2)cc1,i,1.4
C/C=C/Cn1c(N2CCNCC2)nc2c1c(=O)[nH]c(=O)n2C,i,-0.93
CN(C)c1ccc(-c2nn3c(-c4ccc5ccccc5n4)nnc3s2)cc1,i,0.01
Cc1sc(C)c(S(=O)(=O)Nc2ccc3c(c2)OCCO3)c1-c1cc(C(F)(F)F)on1,i,-0.12
CCOC(=O)c1c(C)c(S(=O)(=O)NC2CCCCC2)c(C)n1C,i,-0.41
CCCc1nnc2sc(NC(=O)CCC3CCCC3)nn12,i,-0.55
CC(C)(C)NCC(O)COc1cccc2[nH]c(=O)[nH]c12 (stereo not given),i,-1.1&0.05
Cc1cc(S(=O)(=O)Nc2ccc(-c3ccc(N4CCCC4)nn3)cc2)c(C)cc1Cl,i,-0.09
CC1CS(=O)(=O)N(c2ccc(C(=O)N3CCc4ccccc43)cc2)C1=O (stereo not given),i,-0.06
O=C(Cn1c(N2CCCCC2)nc2ccsc2c1=O)NCC1CC1,i,0.59
Cc1ccc(-c2c(C(F)(F)F)nn3c(N4CCCCC4)cc(C)nc23)cc1,i,-0.61
CCOC(=O)c1[nH]c(C)c(S(=O)(=O)Nc2cccc(C)n2)c1C,i,-0.75
Cc1cc(C(=O)CSc2nnc(CN(c3ccc(F)cc3)S(C)(=O)=O)n2C)c(C)n1C,i,-0.07
CCOc1cc(CN2CCCC2c2c(C)noc2CC)ccc1O (stereo not given),i,-1.1
Cn1nnc2c(N3CCC(O)CC3)ncnc21,i,-0.49
Clc1ccc(-c2noc(-c3ccc(NCCC4=CCCCC4)nn3)n2)cc1,i,0.84
COc1ccc(S(=O)(=O)N2CCc3nc(N4CCCCC4)ncc3C2)cc1OC,i,-0.31
CCSc1nccc2c1ccn2CC(=O)NCc1ccc(C)c(C)c1,i,0.27
Cc1ccc(NC(=O)Nc2cccc(-c3noc(C4CCC4)n3)c2)cc1,i,1.2
Cn1c(=O)c2nc(SCCC(=O)Nc3cc(Cl)ccc3F)n(C)c2n(C)c1=O,i,-0.05
c1ccc(CN2CCCC(Nc3ncnc4c3CCC4)C2)nc1 (stereo not given),i,0.15
CC(C)NC(=O)Cc1ccc(-n2c(=O)c3ccccc3n(CC(=O)Nc3ccc4c(c3)OCCO4)c2=O)cc1,i,0.48
COC(=O)c1cc(Nc2cc(Cl)c(OC)cc2OC)c2cc(F)ccc2n1,i,-0.06
Cc1nc2nc3c(c(Nc4ccccc4Cl)n2n1)CCCC3,i,-0.89
CC(C)CCn1c(SCc2cc(=O)n3ccccc3n2)nc2c(-c3ccccc3)cn(C)c2c1=O,i,0.23
O=C(c1ccc2c(c1)OCCO2)N1CCN(c2nc3ccc(F)cc3s2)CC1,i,0.08
Cc1cccc(-c2noc(CCn3nc(-c4ccc5c(c4)OCO5)ccc3=O)n2)c1,i,0.71

# Laid out differently: entries from further up
smiles | Anaer choline gr | Anaer choline gr early
CCSc1nccc2c1ccn2CC(=O)NCc1ccc(C)c(C)c1 | i | 0.27
Cc1ccc(NC(=O)Nc2cccc(-c3noc(C4CCC4)n3)c2)cc1 | i | 1.2
Cn1c(=O)c2nc(SCCC(=O)Nc3cc(Cl)ccc3F)n(C)c2n(C)c1=O | i | -0.05
c1ccc(CN2CCCC(Nc3ncnc4c3CCC4)C2)nc1 (stereo not given) | i | 0.15
CC(C)NC(=O)Cc1ccc(-n2c(=O)c3ccccc3n(CC(=O)Nc3ccc4c(c3)OCCO4)c2=O)cc1 | i | 0.48

# Further results
SMILES,Anaer choline gr,Anaer choline gr early
O=C1CCCc2nc(N3CCN(c4ccccc4F)CC3)ncc21,i,0.38
CC(C)CC(=O)Nc1nnc(S(=O)(=O)N2CCC(C)CC2)s1,i,0.97
COc1cc2c(cc1OC)C(C(=O)Nc1cccc(Cl)c1)C(c1cccnc1)N(C)C2=O (stereo not given),i,0.92
Cc1nc(-c2ccc(C)c(-n3cc(C(=O)Nc4ccc(Cl)cc4C)c(C)n3)c2)no1,i,0.14
O=C(CSc1nc(-c2ccccc2)nc2cc(=O)[nH]n12)Oc1ccc(Cl)cc1,i,-1.4
Cn1c(=O)c2nc(S(=O)(=O)CCC(=O)N3CCCCC3)n(C)c2n(C)c1=O,i,0.13
CCOC(=O)c1ccccc1NC(=O)Cn1cc(C(=O)c2ccc(CC)cc2)c(=O)c2ccc(C)nc21,i,1.1
c1ccc(Oc2nc3ccccc3nc2N2CCCC2)cc1,i,1.3
Cn1c(=O)c2ccc(C(=O)NC3CCCC3)cc2n2c(SCC(=O)NC3CCCCC3)nnc12,i,-0.07
O=C(NCc1ccccc1)c1cccc(-n2cnc3cccnc32)c1,i,0.22
Cc1ccc(-c2noc(-c3cc(-c4ccc(C)c(C)c4)n[nH]3)n2)cc1,i,1.3
Cc1nc2nc3c(c(Nc4cccc(F)c4)n2n1)CCCC3,i,0.72
Cc1ccc(-n2c(-c3ccc(Cl)cc3)cn3c4c(=O)n(C)c(=O)n(C)c4nc23)c(C)c1,i,0.29
CC1(C(=O)NCc2cccc(F)c2)CCCN(S(=O)(=O)c2ccc(F)cc2F)C1 (stereo not given),i,-0.21
CCOc1ccc(-n2nnnc2CNC(=O)Nc2ccccc2Cl)cc1,i,-0.89
CC(=O)N1CCC(Oc2nccnc2N(C)C)C1 (stereo not given),i,0.43
Cc1sc(C)c(S(=O)(=O)NCc2ccccc2Cl)c1-c1cc(C(F)(F)F)on1,i,0.72
CN(C)c1nc(Nc2ccc3c(c2)OCO3)c2cnn(-c3ccccc3)c2n1,i,-0.24
CCn1c(CCc2cccc(NS(=O)(=O)c3ccc(F)cc3F)c2)nc2ccccc21,i,-1
CC(=O)N1CCCSc2ccc(S(=O)(=O)N3CCSc4ccccc43)cc21,i,-0.51
COc1cccc(CNC(=O)c2noc3c2CSc2ccccc2-3)c1,i,1.9
CCC(C)Nc1cc(C)nc2c(-c3ccc(F)cc3)c(C(F)(F)F)nn12 (stereo not given),i,0.66
COc1ccc(NC(=O)c2ccnc(Nc3ccc(F)c(Cl)c3)c2)cc1,i,-0.27
Cc1cccc(OCCCn2c(CO)nc3ccccc32)c1,i,-0.29
Cc1cc(Cl)ccc1NC(c1cccnc1)c1ccc2cccnc2c1O (stereo not given),i,0.9
CNC(=O)c1ccc(-c2nc(CN3CCN(C(=O)Nc4cccc(C)c4)CC3)c(C)o2)cc1,i,0.68
Cc1cccc(C)c1NC(=O)c1cc(-c2ccccn2)n[nH]1,i,-0.95
Cc1noc2ncnc(N3CCCC(C(=O)O)C3)c12 (stereo not given),i,-0.37
CN(C)c1cccc(C(=O)N2CCN(c3cc(=O)n(C)c(=O)n3C)CC2)c1,i,0.04
Cc1noc2c1C(c1ccc(F)cc1)C1=C(CC(c3ccccc3)CC1=O)N2 (stereo not given),i,-0.02
COc1ccc(NC(=O)C2CCCN2S(=O)(=O)c2ccc3c(c2)CCCC(=O)N3)cc1 (stereo not given),i,-0.25
O=C(Cn1nc(N2CCN(c3ccccc3)CC2)ccc1=O)NCCCN1CCCC1,i,-0.5
CCOc1ccc(-c2csc(Cc3nc(-c4cccc(F)c4)no3)n2)cc1,i,1.5
O=C(CSc1nccn2nc(-c3ccccc3)cc12)Nc1ccc(Br)cc1,i,2.4
COC(=O)c1ccccc1NC(=O)C1Cc2cc(S(=O)(=O)N3CCCC3)ccc2N1C(C)=O (stereo not given),i,1.3
Cc1nn(C(=O)Nc2ccc(Br)cc2F)c2ccccc12,i,-0.19

# Retrieved one by one from above:
SMILES,Anaer choline gr,Anaer choline gr early
CNC(=O)c1ccc(-c2nc(CN3CCN(C(=O)Nc4cccc(C)c4)CC3)c(C)o2)cc1,i,0.68
O=C(Cn1nc(N2CCN(c3ccccc3)CC2)ccc1=O)NCCCN1CCCC1,i,-0.5
Cc1noc2ncnc(N3CCCC(C(=O)O)C3)c12 (stereo not given),i,-0.37
CCOc1ccc(-c2csc(Cc3nc(-c4cccc(F)c4)no3)n2)cc1,i,1.5
COC(=O)c1ccccc1NC(=O)C1Cc2cc(S(=O)(=O)N3CCCC3)ccc2N1C(C)=O (stereo not given),i,1.3

# Later entries:
SMILES,Anaer choline gr,Anaer choline gr early
Cn1cc(S(=O)(=O)N2CCCCC2)cc1C(=O)N1CCN(c2ccc(F)cc2)CC1,i,1.2
Cc1ccc(N2C(=O)CCS2(=O)=O)cc1S(=O)(=O)Nc1ccc(C(C)(C)C)cc1,i,-1.1
CC(C(=O)NC1CC1)C1CCN(S(=O)(=O)c2ccc(Br)s2)CC1 (stereo not given),i,-0.43
Cc1ccc(CNC(=O)C2CCN(c3cnc(N4CCSCC4)nc3)CC2)o1,i,-0.97
O=C(NC1CCCC1)N1CCN(Cc2nc3ccc(Cl)cc3o2)CC1,i,0.58
CC(=O)N=c1sc(S(N)(=O)=O)nn1C,i,0.13&0.7
Cc1ccc(-c2cncc(C(=O)NC3CCCc4ccccc43)c2)cc1 (stereo not given),i,1.6
Cc1nc(-c2cc(NC(=O)Cc3ccc(Cl)cc3)c(C)s2)no1,i,-1.5
Cc1cc(S(=O)(=O)NCCc2sc(-c3ccc(F)cc3)nc2C)ccc1F,i,-0.29
Cc1nc(CNC(=O)[C@H]2CCCN2S(=O)(=O)c2ccc(Cl)s2)cs1,i,-1.5
CC1CNCCN1S(=O)(=O)c1cccc2cnccc12 (stereo not given),i,0.38&0.5
CCS(=O)(=O)N1CCC(c2c(C)n(Cc3ccc(Cl)cc3)c3ccccc23)CC1,i,1.6
CC1CN(S(C)(=O)=O)c2ccccc2O1 (stereo not given),i,-0.46
O=C(CN1C(=O)C(c2ccccc2)Oc2cccnc21)NCCCN1CCC(N2CCCCC2)CC1 (stereo not given),i,-0.3
COc1cc(=O)n(-c2ccc(C)cc2)nc1C(=O)Nc1ccc(Br)cc1,i,-0.11
Cc1ccc(NS(=O)(=O)c2ccc(NC(=O)CN3C(=O)c4ccccc4S3(=O)=O)cc2)cc1,i,-0.67
COC(=O)c1scc(-c2ccc(C)cc2)c1S(=O)(=O)N1CC=C(c2ccccc2)CC1,i,0.27
Cc1ccc(-c2cc(C(=O)Nc3cccc4nsnc34)c3ccccc3n2)cc1C,i,0.97

# Not all compounds are listed. The share of hits here may be higher or lower than overall.
